UCH37 inh: human UCH37 deubiquitinating enzyme inhibition; Q9Y5K5; purified proteasome/UCH37, Ub-AMC cleavage fluorescence; inhibition, % (no concentration beside the values); 0.33% of 330,000 active;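 active = mean of two replicates above 20%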;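 note: 0% = compound-free wells with enzyme and 100% = wells lacking proteasome; stock transfer was 100 nL into about 20 µL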
Target sequence (Q9Y5K5 whole entry, looked up): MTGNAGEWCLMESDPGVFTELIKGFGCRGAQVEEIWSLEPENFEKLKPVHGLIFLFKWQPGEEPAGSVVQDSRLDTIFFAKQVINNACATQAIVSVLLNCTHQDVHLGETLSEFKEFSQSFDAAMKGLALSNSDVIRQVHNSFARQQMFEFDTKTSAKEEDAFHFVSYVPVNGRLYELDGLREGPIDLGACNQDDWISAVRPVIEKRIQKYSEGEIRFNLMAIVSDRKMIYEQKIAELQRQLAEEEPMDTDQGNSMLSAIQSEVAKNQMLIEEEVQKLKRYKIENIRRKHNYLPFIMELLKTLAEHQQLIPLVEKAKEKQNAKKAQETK
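Schedule: 30 min plus 25 min, room temperature / Material: human UCH37 within purified proteasomes / Technique: AMC fluorescence intensity at 355/460 nm / Buffer or medium: pH 7.4 Tris-HCl (50 mM) with ovalbumin, ATP-MgCl2, DTT / Controls: wells without proteasome as full block, compound-free enzyme plus substrate as uninhibited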
B2AR ag: agonists of human beta-2 adrenergic receptor inducing internalization | P07550 | response, % (test concentration not listed) | 0.43% of 340,000 active | Am2.2-beta2AR cells, FAP receptor internalization, flow cytometry; reference of the scale not given here;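 active = response above a set limit, near 3 SD of response in nonfluorescent compounds, cut at about 42% in these data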;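 note: stock transfer was 100 nL into about 11 µL; a reference agonist was the positive control; negative values mostly stem from fluorescent compounds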
Target sequence (P07550 whole entry, looked up): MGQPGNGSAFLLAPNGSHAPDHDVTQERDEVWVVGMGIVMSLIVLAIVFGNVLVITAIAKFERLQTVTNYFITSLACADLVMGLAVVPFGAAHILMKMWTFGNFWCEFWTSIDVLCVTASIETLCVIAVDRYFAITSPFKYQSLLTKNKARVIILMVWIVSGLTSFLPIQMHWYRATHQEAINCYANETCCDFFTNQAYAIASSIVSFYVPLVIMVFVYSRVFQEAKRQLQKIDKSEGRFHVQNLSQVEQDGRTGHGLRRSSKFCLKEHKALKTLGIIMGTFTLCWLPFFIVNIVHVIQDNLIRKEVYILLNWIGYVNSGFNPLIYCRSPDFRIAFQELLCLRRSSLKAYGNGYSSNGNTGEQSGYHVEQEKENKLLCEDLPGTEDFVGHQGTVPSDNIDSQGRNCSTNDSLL
Numbers without * were called inactive.

structure	UCH37 inh	B2AR ag
CN(C)C(=O)CCc1ccc2c3c([nH]c2c1)[C@]1(C)[C@@H](C(=O)N2CCOCC2)C[C@H](CC(=O)NCCC2=CCCCC2)C(=O)N1CC3	6.0	-3
O=S(=O)(Cc1ccccc1)NC1c2ccccc2Oc2ccccc21	1.4	4
O=C(CSc1nnc(N2CCCC2)n1-c1ccccc1Cl)N1CCN(c2ccccn2)CC1	0.2	0
COc1ccc2[nH]c3c(c2c1)CCN1C(=O)C(CC(=O)NCCCN(C)C)C[C@H](C(=O)N2CCCCC2)[C@@]31C (stereo not given in full)	-0.7	-5
C[C@@H]1C(c2ccccc2)=NN(c2ccc(Br)cc2)[C@H]1C(=O)N1CCOC1=O	-103	9
Nc1nc(N)c2[nH]c(=S)[nH]c2n1	1.3	3
CN(C(=O)c1ccc(NC(=O)Cc2cccc(NC(=O)C3CCCN(S(=O)(=O)c4cccc([N+](=O)[O-])c4)C3)c2)cc1)C1CC1 (stereo not given)	1.8	5
CN(C)S(=O)(=O)c1cccc(NC(=S)NC(=O)c2ccco2)c1	-0.6	-1
Cc1ccc(C(=O)NCc2cccc(C(F)(F)F)c2)cc1S(=O)(=O)N1CCCCC1	-0.6	1
COc1cccc(C2CC(c3ccccc3Cl)Nc3ncnn32)c1 (stereo not given)	1.8	-1

Arranged by value in B2AR ag (smallest number first): some entries from above
Compound	B2AR ag
CN(C)S(=O)(=O)c1cccc(NC(=S)NC(=O)c2ccco2)c1	-1
O=C(CSc1nnc(N2CCCC2)n1-c1ccccc1Cl)N1CCN(c2ccccn2)CC1	0
Cc1ccc(C(=O)NCc2cccc(C(F)(F)F)c2)cc1S(=O)(=O)N1CCCCC1	1
Nc1nc(N)c2[nH]c(=S)[nH]c2n1	3
O=S(=O)(Cc1ccccc1)NC1c2ccccc2Oc2ccccc21	4
C[C@@H]1C(c2ccccc2)=NN(c2ccc(Br)cc2)[C@H]1C(=O)N1CCOC1=O	9

(next part)
structure	UCH37 inh	B2AR ag
CCN(CC)S(=O)(=O)c1ccc(N2CC(C(=O)Nc3cccc(C(=O)NC4CC4)c3)CC2=O)cc1 (stereo not given)	1.1	-13
COc1ccccc1C(=O)NCCC(=O)N1CCN(c2ccc(C(F)(F)F)cn2)CC1	3.5	-12
O=[N+]([O-])c1ccc2c(c1)Cc1cc(F)ccc1-2	3.4	8
C[C@]12c3[nH]c4cc(-c5ccco5)ccc4c3CCN1C(=O)[C@@H](CC(=O)NCCN1CCOCC1)C[C@@H]2C(=O)N1CCOCC1	-27	8
CCN1C(=N)N(c2ccccc2)C(=O)C(CC)(CC)C1=O	1.5	-6
COc1ccc2cc(N3CCCC3=O)ccc2c1	-0.7	-1
CSCCC(NS(=O)(=O)c1cccc(C(F)(F)F)c1)C(=O)N1CCN(C(=O)c2ccco2)CC1 (stereo not given)	1.7	-18
COc1cc(OC)cc(C(=O)N[C@H](C(=O)OCC(=O)N2CCN(S(=O)(=O)c3ccc(C)cc3)CC2)C(C)C)c1	4.7	8
Cc1ccc(C2C(C(=O)c3cc4ccccc4o3)=C(O)C(=O)N2CCN(C)C)o1 (stereo not given)	7.8	-13
CN(C(=O)c1cccc(NC(=O)Cc2ccc(NC(=O)C3CCCN(C(=O)C4CCC4)C3)cc2)c1)C1CCCC1 (stereo not given)	1.6	-2
CC(=O)Nc1ccc(C(=O)OCC(=O)NCCC2=CCCCC2)cc1	6.4	-8
CCCCN([C@H](CO)C(C)C)S(=O)(=O)c1ccccc1Br	4.4	-1
Nc1ccc2c(c1)C(=O)c1cc([N+](=O)[O-])ccc1-2	2.8	3
CC(C)=CCC/C(C)=C/CNC(=O)C[C@H]1C[C@H](C(=O)N(C(C)C)C(C)C)[C@@]2(C)c3[nH]c4ccc(Cl)cc4c3CCN2C1=O	0.0	-4
Cc1nc(N)[nH]c(=O)c1CCCNc1ccc(CCCCC2(CCl)OCCO2)cc1	1.9	-10
Nc1nc2cc(Cl)c(Br)cc2o1	2.0	1
CC[C@]12c3[nH]c4cc(-c5ccco5)ccc4c3CCN1C(=O)[C@@H](CC(=O)NCc1ccc(OC)c(OC)c1)C[C@@H]2C(=O)N1CCN(C(=O)C2CC2)CC1	-32	1
O=C1CCc2ccccc2O1	0.9	-11
CCC(C)Sc1cc(-c2nc3cc(C)ccn3c2NC2CCCCC2)ccc1OC (stereo not given)	-103	11
C(=NOCCc1ccccc1)c1ccccn1	2.3	-5
CCCCC[C@@H](/C=C/C1C(=O)C=C[C@H]1C/C=C\CCCC(=O)O)OC(C)=O (stereo not given in full)	2.5	4
COc1cc(C2C(C(=O)c3sc(C)nc3C)=C(O)C(=O)N2CCN(C)C)cc(OC)c1OC (stereo not given)	9.3	4
CCOC(=O)C1CCN(C(=O)COC(=O)c2cccc(NS(=O)(=O)c3ccccc3)c2)CC1	-2.1	16
C/C=C1\NC(=O)[C@H](C)NC(=O)[C@@H](NC(=O)[C@@H](Cc2ccc(O)cc2)NC(=O)[C@@H](NC(=O)/C(C)=C/C)C(C)C)[C@@H](C)OC(=O)[C@H](CCCCc2ccc(O)cc2)NC(=O)[C@@H](CCC(=O)O)NC1=O	2.2	4
CC1CCC2(CC1)NC(=O)N(NC(=O)C1CCN(C(=O)c3ccc(Cl)cc3)CC1)C2=O (stereo not given)	4.6	-2
COc1ccc(NC(=O)/C(Cl)=C(/Cl)S(=O)Cc2ccc(Cl)cc2)cn1 (stereo not given)	5.3	-401
COc1ccc(NC(=O)c2ccc3c(c2)S(=O)(=O)N=C2CCCCCN23)cc1S(N)(=O)=O	6.0	-3
COC(=O)[C@]1(C)N[C@H](CN(C)C(=O)c2ccc(C(C)(C)C)cc2)[C@@H]2C(=O)N(C)C(=O)[C@@H]21	4.2	1
Cc1ccc(-n2nc3c(c2NC(=O)c2ccc(S(=O)(=O)N4CCOCC4)cc2)CSC3)c(C)c1	3.4	6
Cc1ccc(S(=O)(=O)N2CCN(C(=O)c3cc(S(=O)(=O)N4CCOCC4)ccc3F)CC2)cc1	1.7	1

Grouped by structure, the entries above with fluorine
structure	UCH37 inh	B2AR ag
Cc1ccc(C(=O)NCc2cccc(C(F)(F)F)c2)cc1S(=O)(=O)N1CCCCC1	-0.6	1
COc1ccccc1C(=O)NCCC(=O)N1CCN(c2ccc(C(F)(F)F)cn2)CC1	3.5	-12
O=[N+]([O-])c1ccc2c(c1)Cc1cc(F)ccc1-2	3.4	8
CSCCC(NS(=O)(=O)c1cccc(C(F)(F)F)c1)C(=O)N1CCN(C(=O)c2ccco2)CC1 (stereo not given)	1.7	-18
Cc1ccc(S(=O)(=O)N2CCN(C(=O)c3cc(S(=O)(=O)N4CCOCC4)ccc3F)CC2)cc1	1.7	1

Additional compounds:
structure	UCH37 inh	B2AR ag
CCOC(=O)C1Oc2ccccc2C(c2ccc(OC)cc2)=C1C(=O)OC (stereo not given)	-1.4	0
O=C1[C@H](Cc2ccccc2)NCC=CC[C@H](c2ccc(Cl)cc2)N1Cc1ccc(Cl)cc1	1.1	-2
COc1cccc(NC(=O)CN(C)C(=O)CNC(=O)c2ccc(C)s2)c1	-1.9	-3
O=C(COC(=O)Cc1cccc(F)c1)NC(=O)NC1CCCCC1	3.3	-6
CCN(C(=O)COC(=O)/C=C/c1ccc(Cl)c(Cl)c1)c1c(N)n(Cc2ccccc2)c(=O)[nH]c1=O	1.3	6
O=c1oc2ccccc2c(=O)c2ccccc12	6.2	-1
O=[N+]([O-])c1cc(-c2ccccc2)cc([N+](=O)[O-])c1O	8.8	10
O=C1CCCc2cc3c(cc21)CCCC3	3.7	-2
O=C(CNc1cccc(F)c1)Nc1cccc(S(=O)(=O)N2CCCCC2)c1	5.5	-4
CN(CCc1ccccc1)C(=O)c1ccc(NC(=O)Cc2ccc(NC(=O)C3CCCN(S(=O)(=O)c4cccc([N+](=O)[O-])c4)C3)cc2)cc1 (stereo not given)	2.2	-2
CC(C)C(NS(=O)(=O)c1ccccc1F)C(=O)OCC(=O)NCc1ccco1 (stereo not given)	1.6	-2
Cc1c(N(C)S(=O)(=O)c2ccc(Cl)c(C(=O)NCC(C)(C)N3CCOCC3)c2)c(=O)n(-c2ccccc2)n1C	2.8	-9
COc1ccccc1C(CNC(=O)c1cccc(S(=O)(=O)N2c3ccccc3CC2C)c1)N(C)C (stereo not given)	3.2	9
Cc1nnc(NS(=O)(=O)c2ccc(N=Nc3ccc(N)nc3N)cc2)s1	19	9
COc1ccccc1N1CCN(C(=O)c2ccc(-c3nc4ccccc4s3)o2)CC1	1.1	19
COC(=O)[C@]1(Cc2ccccc2)N[C@H](CN(C)C(=O)Nc2ccc(Cl)cc2)[C@@H]2C(=O)N(C)C(=O)[C@@H]21	0.5	-4
COc1ccc(C(=O)COC(=O)c2ccc(Cl)nc2)cc1OC	1.3	12
O=C(COC(=O)C1CC1)NCc1ccccc1	0.0	-4
Cc1ccc(NC(=O)c2ccc(Cl)c(S(=O)(=O)N3CCc4ccccc43)c2)nc1	3.6	-3
COC(=O)[C@]1(C)N[C@H](CN(C)C(=O)C2CCCCC2)[C@@H]2C(=O)N(Cc3ccccc3)C(=O)[C@@H]21	2.3	-5

Next part
Molecule | UCH37 inh | B2AR ag
CC(=O)Nc1c(Cl)cc2c(c1Cl)Cc1ccccc1-2 | 4.4 | -3
COC(=O)c1ccc(CNC(=O)Cn2cnc3c(NCc4ccccc4)ncnc32)cc1 | 4.4 | 10
C[C@@H]1[C@H]2[C@@H]3CC[C@@H](C3)[C@H]2CN[C@H]1c1cn(Cc2ccccc2)c2ccccc12 | 2.4 | 18
CSc1nc2[nH]c(=O)[nH]c2c(=O)[nH]1 | -0.2 | -4
O=C1CN(N=Cc2ccco2)C(=O)N1 | 4.8 | 2
COC(=O)CCC(=O)OC | 2.6 | -2
CC(=O)Nc1cc2c(cc1Br)-c1ccccc1C2 | -0.4 | 3
CCCCNC1(C#N)CCN(Cc2ccccc2)CC1 | 3.0 | -5
Cn1c(=O)c2sccc2n2c(CCCC(=O)NCc3ccc4c(c3)OCO4)nnc12 | 0.5 | 8
CC(C)c1ccc(C(C(C(=O)c2ccccc2)N2CCOCC2)N2CCOCC2)cc1 (stereo not given) | 3.4 | 7
Cn1c(=O)[nH]c(N)c(Br)c1=O | 4.4 | -3
Cc1nn(-c2ccc(Cl)cn2)c2c1C(=O)CC(C)(C)C2Br (stereo not given) | 4.1 | -1
COCCCNC(=O)Cn1cnc(C(=O)Nc2ccc(C)c(C)c2)n1 | -1.5 | 1
CCN(CC)C(=O)[C@H]1C[C@H](CC(=O)NCCCOC)C(=O)N2CCc3c([nH]c4cc(CCC(=O)N(C)C)ccc34)[C@]12C | 4.0 | -9
NC(=O)c1ccc(N2CCCC2)nc1 | -1.0 | -6
COc1ccccc1NC(=O)c1ccc(NC(=O)COC(=O)C2CCCO2)cc1 (stereo not given) | 1.2 | -14
CC1=CC2(C#N)C3(N=C(N)C2(C#N)C(c2ccccc2)N1)OCCO3 (stereo not given) | -6.6 | 2
Oc1cc2c(cc1C(c1ccc(Br)cc1)N1CCCC1)OCO2 (stereo not given) | 3.8 | 13
CC(C(=O)Nc1ccc(S(=O)(=O)N2CCCC2)cc1)N1CCCC(C(N)=O)C1 (stereo not given) | 2.2 | -8
COC(=O)C1OCOC2C(C(=O)OC)OCOC12 (stereo not given) | 1.1 | 1
CN1C[C@@H]2[C@@H]3C(=O)N(Cc4ccccc4)C(=O)[C@@H]3[C@](C)(C1=O)N2C(=O)c1ccc(C(F)(F)F)cc1 | 1.5 | -3
CCN(C(=O)CSc1nnc(-c2ccc(C)cc2)n1N)c1c(N)n(Cc2ccccc2)c(=O)[nH]c1=O | 2.7 | -8
Cc1ccc(Cl)cc1NC(=O)CON=C(N)c1ccccc1 | 2.7 | 0
Cc1ccc(S(=O)(=O)N2CCN(C(=O)c3cc(S(=O)(=O)N4CCOCC4)ccc3Cl)CC2)c(C)c1 | -1.2 | -2
COc1ccc(OC)c(CN2CCN(C(=O)c3ccc(C)c(S(=O)(=O)Nc4ccccc4OC)c3)CC2)c1 | 1.0 | 15
COc1ccccc1C1CC(=O)Oc2cc(OC)c(OC)c(OC)c21 (stereo not given) | 3.1 | 3
CC(=O)N1CCN(S(=O)(=O)c2cccc(C(=O)OCC(=O)Nc3c(Cl)cccc3C(F)(F)F)c2)CC1 | 3.5 | -2
CC(CNC(=O)CN(C)CC(=O)Nc1ccccc1Br)c1ccccc1 (stereo not given) | -0.1 | 2
COC(=O)[C@@]1(C)[C@H]2C(=O)N(C)C(=O)[C@H]2[C@H]2CN=C(SC)N21 | 1.1 | -6
CC(C)N1CCN(S(=O)(=O)c2ccccc2)c2ccccc21 | 5.5 | 4
CN(C)C(=O)c1ccc(-c2nnc(OCc3nc4ccccc4n3C)c3ccccc23)cc1 | 1.6 | -5
CCOC(=O)C1=CN(CC)S(=O)(=O)NC1CC (stereo not given) | -0.1 | 3
O=C(OCc1cc(=O)c(OC(=O)c2ccccc2)co1)c1ccccc1 | 1.4 | 11
O=C1CCN(Cc2ccccc2)C=C1C(=O)c1ccccc1 | 6.3 | -4
O=C1c2[nH]c(=O)[nH]c(=O)c2CN1Cc1ccccc1 | -23 | 0
COc1ccccc1N1CCN(C(=O)c2cc(S(=O)(=O)N3CCOCC3)ccc2C)CC1 | -1.2 | -13
Cc1ccc(S(=O)(=O)Nc2ccc(S(=O)(=O)Nc3nccs3)cc2)cc1C | 0.5 | 4
CCSc1nnc(SCC(=O)c2c(N)n(C)c(=O)n(C)c2=O)s1 | 0.5 | 0
CCCN1C(C)C(C(=O)OCC)=CN(Cc2cccc(I)c2)S1(=O)=O (stereo not given) | 3.5 | 1
CN(C(=O)c1cccc(NC(=O)Cc2cccc(NC(=O)C3CCN(S(=O)(=O)c4cccc([N+](=O)[O-])c4)CC3)c2)c1)C1CC1 | 1.4 | 0

Bioassay records from PubChem BioAssay.

Only part of the results is shown, so the mix of outcomes need not match the whole.
